Source: PubChem
LASV entry inh – Lassa virus entry inhibition; Potency, µM (top dose mostly 37.9 µM), for the others: top-dose activity change, negative = inhibition, usual class: inhibitors; 300,000 compounds, 1.2% hits; AID 540256; Lassa virus pseudotype entry inhibition, cell reporter; control for the full effect not named in the record; active means well fitted inhibition curve with a large enough effect; inconclusive means small, poorly fitted or top-dose-only effect, or effect the other way; inactive means flat fitted curve, though single readings scatter; tested in HEK293 cells; also: % is scaled to controls: 0 for no effect and ±100 for the full control effect; nearly all actives have a fitted effect of over 50% in size; luciferase read-out
Cruzain inh Det – blocks cruzain activity in presence of Triton detergent; AID 1478; purified cruzain, Z-FR-AMC fluorescence, 0.01% Triton; 200,000 compounds, 0.43% hits; Potency, µM, for the others: max response, negative = inhibition, usual class: inhibitors; P25779; active = well fitted curve in the direction sought with a large enough effect; inconclusive = small, poorly fitted or top-dose-only effect, or another doubt; inactive = no such curve, though single readings can be large; an effect the other way counts as inactive or inconclusive;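 also: plate controls were neutral wells for no effect and buffer without enzyme for full effect; nearly all actives have a fitted effect of over 40% in size; top concentration of the series not given in the record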
Target sequence (P25779 123-467 limits assumed): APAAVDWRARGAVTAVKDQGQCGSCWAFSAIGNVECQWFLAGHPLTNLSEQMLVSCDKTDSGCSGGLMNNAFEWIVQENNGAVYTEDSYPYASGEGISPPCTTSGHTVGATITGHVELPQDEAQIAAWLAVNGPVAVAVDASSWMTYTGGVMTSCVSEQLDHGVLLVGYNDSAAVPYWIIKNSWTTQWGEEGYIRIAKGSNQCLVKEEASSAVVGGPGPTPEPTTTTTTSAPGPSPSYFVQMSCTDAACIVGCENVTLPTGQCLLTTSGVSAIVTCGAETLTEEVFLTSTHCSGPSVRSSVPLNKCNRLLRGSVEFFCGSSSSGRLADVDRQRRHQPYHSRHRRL
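Cruzain (1.5 nM) preincubated 15 min at RT with compound in 100 mM sodium acetate pH 5.5, 5 mM DTT, 0.01% Triton X-100. Reaction started with 2 uM Z-FR-AMC; AMC fluorescence (ex 360/em 450 nm) change over 60 s gave rate.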
NS1 inh – inhibitors of influenza NS1 protein function; 270,000 compounds, 0.4% hits; AID 2326; S. cerevisiae slowed by influenza A NS1, growth recovery by OD600; Potency, µM (series often up to 46.1 µM), inactives show at the highest dose activity, positive = more growth; also: actives are rising curves; nearly all actives have a fitted effect of over 50% in size
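A cell-based growth assay was used: compounds that relieve NS1-induced slow growth of budding yeast raise OD600. Assay medium was yeast nitrogen base with ammonium sulphate and -URA supplement, pH 6.0, with 2% galactose.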
MARV entry inh – blocks Marburg virus binding to or entry into cells; Potency, µM (titrated, usually from 37.8 µM), inactives show at the highest dose activity change, negative = inhibition, most hits filed as inhibitors; 300,000 compounds, 1.8% hits; Marburg virus pseudotyped entry inhibition, cell reporter; control for the full effect not named in the record; about a third of the inactives were read at about 46 µM; active = well fitted inhibition curve with a large enough effect; inconclusive = small, poorly fitted or top-dose-only effect, or effect the other way; inactive = flat fitted curve, though single readings scatter; tested in HEK293 cells; about a fifth of its hits are not listed in these tables; also: % is scaled to controls: 0 for no effect and ±100 for the full control effect; luciferase read-out
StopGo reporter – FMDV 2A StopGo reporter, luciferase signal | human cells with a luciferase reporter of 2A StopGo recoding; control for the full effect not named in the record | Potency, µM (doses to about 57.9 µM), for inactives: at the top dose signal change, negative = less light | 410,000 compounds, 1.2% hits | AID 1159524; active = well fitted falling curve with a large enough effect; inconclusive = small, poorly fitted or top-dose-only effect; inactive = no such curve, though single readings can be large or run the other way; tested in HEK293T cells; also: % is scaled to controls: 0 for no effect and ±100 for the full control effect; nearly all actives have a fitted effect of over 45% in size; luciferase light after 4 h
RE007 growth inh – less growth of the S. pombe RE007 Vpr strain. S. pombe RE007 Vpr strain, BacTiter-Glo ATP luminescence, 24 h; control for the full effect not named in the record. 360,000 compounds, 0.21% hits. AID 651644. Potency, µM (titrated, usually from 92.2 µM), without a hit: at the top dose activity change, negative = less growth; active = well fitted falling curve with a large enough effect; inconclusive = small, poorly fitted or top-dose-only effect; inactive = no such curve, though single readings can be large or run the other way;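 also: % is scaled to controls: 0 for no effect and ±100 for the full control effect; nearly all actives have a fitted effect of over 50% in size; the assay follows cell death caused by Vpr and the record does not say whether a fall means rescue or toxicity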
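Fission yeast RE007 carrying one integrated HIV-1 vpr copy, seeded at OD 0.01 in PMG+AL medium with 23 nL pinned compound. Grown 24 h at 30 degrees; viability read by BacTiter-Glo luminescence after 5 min.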
Cruzain inh noDet – cruzain (T. cruzi) inhibition without detergent | Potency, µM, for the others: max response, negative = inhibition, hits mostly inhibitors | AID 1476 | 200,000 compounds, 2.3% hits | P25779 | purified cruzain, Z-FR-AMC fluorescence, no detergent; active = well fitted curve in the direction sought with a large enough effect; inconclusive = small, poorly fitted or top-dose-only effect, or another doubt; inactive = no such curve, though single readings can be large; an effect the other way counts as inactive or inconclusive;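 also: plate controls were enzyme without inhibitor for no effect and buffer without enzyme for full effect; nearly all actives have a fitted effect of over 40% in size; top concentration of the series not given in the record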
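Detergent-free condition (0.00005% Triton X-100) in acetate buffer pH 5.5 with DTT. 1.5 nM enzyme and compound were pre-mixed 15 min, then 2 uM Z-FR-AMC substrate added; reaction progress from fluorescence change between first and third reads (60 s).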
SARS PLpro yeast – inhibitors of SARS-CoV papain-like protease in yeast; S. cerevisiae expressing SARS-CoV PLpro, growth rescue; control for the full effect not named in the record; Potency, µM (top dose mostly 32.9 µM), for inactives: at the top dose activity, positive = growth rescue; 330,000 compounds, 0.19% hits; AID 485353; also: 0% is about no effect; nearly all actives have a fitted effect of over 55% in size; growth read by luminescence after 48 h
* marks the source's active call; other numbers are inactive results; ? = inconclusive; . = not tested or not shown; & = joins results of further samples; [ ] = another dose, or the depositor's remark. Unless noted, calls follow the shape of the dose curve; as a rule, active means well fitted rising curve with a large enough effect; inconclusive means small, poorly fitted or top-dose-only effect; inactive means no such curve, though single readings can be large or run the other way. Potency is read from the fitted curve at half-maximal effect.

molecule	LASV entry inh	Cruzain inh Det	NS1 inh	MARV entry inh	StopGo reporter	RE007 growth inh	Cruzain inh noDet	SARS PLpro yeast
O=[N+]([O-])c1cccc(S(=O)(=O)[N-]c2nc3ccccc3nc2-n2cc[n+](Cc3ccccc3)c2)c1	9%	.	-2%	12%	4%	-3%	.	0%
CCCn1nnnc1SCC(=O)Nc1nnc(CC)s1	-4%	-1.3%	0%	2%	-2%	-11%	1%	-10%
CCOCCCNC(=O)CN1C(=O)CSc2cc(S(=O)(=O)N3CCCCCC3)ccc21	1%	1.8%	-34%	-6%&-2%	.	0%	-1%	2%
C[N+](C)(C)CC(=O)Nc1ccc(Cl)cc1C(=O)c1ccccc1	4%	.	.	?	-12%	0%	.	0%
O=C(OCc1cn(Cc2ccccc2)nn1)c1ccccc1	.	.	-7%	.	32%[activator]	-6%	.	1%
COc1ccc(N2CCN(C(=O)C3CCCN(S(=O)(=O)c4ccc5c(c4)CCCN5C(C)=O)C3)CC2)cc1 (stereo unspecified)	?	-4.2%	.	.	?	.	?	.
Cc1ccccc1NC(=S)NC(=O)c1cc(-c2ccccc2)nc2ccccc12	-27%	-0.1%	?	?	-7%	0%	?	-2%
O=C(CN1CCc2ccccc21)NC(c1ccccc1)c1ccccc1	?	-0.3%	5%	-10%	?	-12%	25µM*	?
Clc1cccc(Cl)c1COc1ccccn1	1%	-2.0%	8%	-8%	17%	-12%	-8%	4%
COc1ccc(-n2c(SCC(=O)NCC3CCCO3)nc3c(c2=O)SCC3)cc1OC (stereo unspecified)	.	.	4%	.	-1%	23%	.	?
Cc1c(C)c2ccc(OCC(=O)NC(Cc3ccc(Cl)cc3)C(=O)O)cc2oc1=O (stereo unspecified)	.	.	?	.	-10%	2%	.	4%
Cc1ccc(NC(=S)NCC2CCCO2)cc1C (stereo unspecified)	-11%	-0.1%	-4%	0%	23%	24%	-12%	-5%
Cc1ccc(NC(=O)c2ccccc2)s1	?	0.7%	-34%	?	-7%	-5%	-9%	-21%
COc1cc(C(=O)NCCCN2CCCC2=O)ccc1OCc1ccc(Cl)cc1Cl	-15%	.	.	-8%	-16%	4%	.	-1%
CC(=O)c1ccc(NS(=O)(=O)c2ccccc2)cc1	7%	-4.6%	-1%	0%	14%	-17%	8%	1%
Cc1ccc(S(=O)(=O)Nc2nnc(CC(C)(C)C)s2)cc1	.	.	-17%	.	70%[activator]	-12%	.	-4%
CC(=O)c1sc(NC(=O)CCCOc2ccccc2C)nc1C	.	.	-2%	19%[46.1 µM]	-2%	6%	.	1%
COc1cc2c(cc1NC(=O)CN1CCN(S(=O)(=O)c3ccc(F)cc3)CC1)oc1ccccc12	?	-1.0%	5.6µM*	-23%	-6%	2%	?	-8%
COc1ccc(CNCCCSc2nnnn2-c2ccccc2)cc1	3%[46.1 µM]	0.1%	.	-3%[46.1 µM]	1%	.	-19%	.
CCn1ccnc1C(O)c1ccccc1OC (stereo unspecified)	12%	-1.6%	4%	0%&0%	11%	9%	-3%	-15%

Rewritten with two lines to a compound: entries from further up.
Each structure is followed by: LASV entry inh, Cruzain inh Det, NS1 inh, MARV entry inh, StopGo reporter, RE007 growth inh, Cruzain inh noDet, SARS PLpro yeast
- Clc1cccc(Cl)c1COc1ccccn1
  1%, -2.0%, 8%, -8%, 17%, -12%, -8%, 4%
- COc1ccc(-n2c(SCC(=O)NCC3CCCO3)nc3c(c2=O)SCC3)cc1OC (stereo unspecified)
  ., ., 4%, ., -1%, 23%, ., ?
- Cc1c(C)c2ccc(OCC(=O)NC(Cc3ccc(Cl)cc3)C(=O)O)cc2oc1=O (stereo unspecified)
  ., ., ?, ., -10%, 2%, ., 4%
- Cc1ccc(NC(=S)NCC2CCCO2)cc1C (stereo unspecified)
  -11%, -0.1%, -4%, 0%, 23%, 24%, -12%, -5%
- Cc1ccc(NC(=O)c2ccccc2)s1
  ?, 0.7%, -34%, ?, -7%, -5%, -9%, -21%
- COc1cc(C(=O)NCCCN2CCCC2=O)ccc1OCc1ccc(Cl)cc1Cl
  -15%, ., ., -8%, -16%, 4%, ., -1%
- CC(=O)c1ccc(NS(=O)(=O)c2ccccc2)cc1
  7%, -4.6%, -1%, 0%, 14%, -17%, 8%, 1%
- Cc1ccc(S(=O)(=O)Nc2nnc(CC(C)(C)C)s2)cc1
  ., ., -17%, ., 70%[activator], -12%, ., -4%
- CC(=O)c1sc(NC(=O)CCCOc2ccccc2C)nc1C
  ., ., -2%, 19%[46.1 µM], -2%, 6%, ., 1%

Further records.
molecule	LASV entry inh	Cruzain inh Det	NS1 inh	MARV entry inh	StopGo reporter	RE007 growth inh	Cruzain inh noDet	SARS PLpro yeast
CCOC(=O)N1CCN(C(=O)C(=O)NNC(=O)COc2ccc(Cl)c(C)c2)CC1	6%	-2.2%	-1%	1%	2%	11%	14%	-9%
Cn1c(=O)c2c(nc(SCC(=O)OCc3ccccc3)n2C)n(C)c1=O	0%	5.9%	-8%	3%	.	-5%	-2%	1%
O=S(Cc1ccccc1)CC(O)(c1ccc(Cl)cc1)c1ccc(Cl)cc1 (stereo unspecified)	-22%	-6.1%	-53%	?	8%	7%	-1%	-39%
O=C(CN1CCN(c2ccccn2)CC1)Nc1ccccc1C(=O)Nc1ccccc1	?	.	.	0%[46.1 µM]	-27%	-9%	.	2%
CC(C)NS(=O)(=O)c1cc(C(=O)O)ccc1Cl	17%	0.3%	-9%	-1%	1%	21%	-14%	-4%
CC(=O)OC1OCCOC1NC(=S)NCc1ccco1 (stereo unspecified)	-18%	.	2%	-11%[46.1 µM]	-4%	13%	.	1%
CCc1ccccc1NC(=O)NNC(=O)c1ccc2ccccc2c1O	16%[46.1 µM]	.	6%	-2%[46.1 µM]	31%[activator]	-10%	.	?
Cc1cccc(NC(=O)c2cc(S(=O)(=O)NCc3ccc4c(c3)OCO4)ccc2F)c1C	3%[46.1 µM]	-0.4%	.	.	-1%	.	4%	.
COc1ccc(/C=N/NC(=O)CCCOc2ccc(Cl)cc2Cl)cc1[N+](=O)[O-]	?	-2.0%	6%	?	-25%	15%	6%	6%
CCCC(=O)Nc1sc2c(c1C(=O)Nc1ccccn1)CCCC2	-4%	.	-1%	?	?	4%	.	0%
CSc1ccc(S(=O)(=O)NCCOc2ccccc2C)cc1	?	-3.2%	-3%	16%	14%	-20%	-25%	-8%
O/N=C/c1cc(Br)ccc1OCc1ccc(F)cc1	?	.	.	?	-9%	35µM*	.	.
COc1cc(OC)c(C(=O)NCc2nc(-c3ccccc3)no2)cc1OC	?	-6.6%	.	?	-26%	.	?	.
Cc1ccccc1NC(=O)c1nc(S(C)(=O)=O)ncc1Cl	.	.	-54%	.	?	-2%	.	-18%
CCN(CC)C(=S)SCc1csc(CC(=O)Nc2ccccc2C)n1	-21%[46.1 µM]	.	-2%	?	0%	3%	.	-3%
C/C(=C\C(=O)c1ccc(C)cc1)NCc1ccc(F)cc1	0%	.	.	-23%	17%	7%	.	.
CCOc1ccccc1C(=O)Nc1ccc2nc3n(c(=O)c2c1)CCCCC3	.	.	-3%	.	3%	7%	.	2%
CC(Sc1nnc(CC(=O)Nc2ccccc2F)n1C)C(=O)Nc1nccs1 (stereo unspecified)	16%	.	2%	-9%[46.1 µM]	5%	1%	.	3%
Cc1cc(NC(=O)CC(C)C)c(=O)n(Cc2c(F)cccc2Cl)c1	.	.	-5%	.	-21%	14%	.	1%
CCCCN(CCCNC(=O)C1CCN(S(=O)(=O)CC)CC1)c1ccccc1	-16%	1.8%	-12%	-28%	.	6%	?	18%
CC1(C)CC(n2c(=S)[nH]c3ccccc3c2=O)CCO1 (stereo unspecified)	12%	-5.4%	-2%	-21%	-14%	-10%	11%	-1%
COc1ccc(Cn2c(SCC(N)=O)nc3c(sc4ccccc43)c2=O)cc1	?	1.2%	.	.	-1%	.	15%	.
O=[N+]([O-])c1ccc(OCCN2CCNCC2)cc1	.	.	-4%	.	-16%	3%	.	0%
Cn1nnnc1NC(=O)c1ccccc1Cl	.	.	14%	.	-24%	-6%	.	2%
Cc1ccc(-c2nnc(Nc3ccc(C(=O)N(C)C)cc3)c3ccccc23)cc1S(=O)(=O)NCC1CCCO1 (stereo unspecified)	?	-5.6%	-2%	?	81%[activator]	-17%	?	-8%
CC(C)C(NC(=O)c1ccccc1)C(=O)NCC(c1ccccc1)N(C)C (stereo unspecified)	2%	.	1%	-20%[46.1 µM]	0%	-12%	.	2%
CCOC(=O)C1CCCN(S(=O)(=O)c2csc(C(N)=O)c2)C1 (stereo unspecified)	-5%[46.1 µM]	0.3%	.	.	?	.	-2%	.
CCOC(=O)CC(NC(=O)c1cccs1)c1ccc(OCC)cc1 (stereo unspecified)	2%	5.4%	-19%	-1%	17%	13%	9%	1%
OCCC1CN(Cc2cccn2-c2cccnc2)CCN1C1CCCCC1 (stereo unspecified)	1%	.	-1%	6%[46.1 µM]	23%	3%	.	-2%
O=C(Cn1cnnn1)Nc1ccccc1Cc1ccccc1	9%	3.3%	-5%	13%	-19%	0%	2%	10%
CCCCCCCCCC(=O)N/N=C(\C)c1cccnc1	4%	-5.6%	-18%	12%[46.1 µM]	-29%	34%	?	-30%
Cc1ccc(S(=O)(=O)Nc2ccc(C(=O)NCCCN3CCOCC3)cc2)cc1[N+](=O)[O-]	10%	.	.	16%[46.1 µM]	-11%	3%	.	0%
